# Assay outcomes deposited in PubChem by National Center for Advancing Translational Sciences (NCATS).
# D2 agonist – agonists of human D2 dopamine receptor (beta-arrestin); P14416; DiscoveRx PathHunter D2 beta-arrestin, luminescence, 90 min; 100% = 57 uM dopamine signal; activation, % (concentration not given with the values); 0.084% of 360,000 active; AID 624465; in the data active = activation above about 40%; inconclusive = about 15% to 40%; inactive = below about 15%; note: compound concentration not given in the record; the text of the record calls up to 30% inactive
#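 DiscoveRx PathHunter D2 beta-arrestin cells (2,100/well) attached overnight, then compound-stimulated 90 min at 37 C in HBSS/10 mM HEPES/0.1% Tween-20 buffer; beta-galactosidase complementation read by luminescence after 1 h at ambient temperature. Dopamine 57 uM final (EC100) as control.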
# CtBP-E1A blk – blocks the CtBP interaction with E1A. AlphaScreen GST-E1A/His-CtBP binding, 1536-well; hits give low values; control for the full effect not named in the record. 0.49% of 340,000 active. AID 651724. activity change, % (no concentration beside the values); in the data active means activity change below about -65%; inconclusive means about -30% to -65%; inactive means above about -30%; note: % is set by controls: 0 for no effect and ±100 for the full control effect; compound concentration not given in the record
#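 Steps: dispense buffer (Tris pH 8.0, NaCl 300 mM, TCEP 1 mM, BSA, Tween 20); add 5X protein mix (GST-E1A, His-CtBP, 125 nM each); pin 23 nL compound; 2 h at 37 °C, dark; add 5X beads (50 ug/mL); 1 h; read.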
# D2 PAM – positive allosteric modulators of human D2 dopamine receptor; P14416; DiscoveRx D2 beta-arrestin cells, luminescence, 90 min; 100% = 57 uM dopamine signal; potentiation, % (no concentration beside the values); 0.23% of 360,000 active; active = potentiation of 50% or more; inconclusive = 30% to 50%; inactive = 30% or less;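 note: compound concentration not given in the record; tested on top of an EC20 dose of dopamine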
#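 PathHunter D2 cells, attached overnight at 37 deg C, received compound in DMSO plus dopamine at EC20 (50 nM final) for 90 min at 37 deg C. Beta-arrestin recruitment was read as luminescence after 1 h with detection reagent at ambient temperature.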
# Six1-Eya2 inh – inhibitors of human Six1/Eya2 interaction; 0.56% of 360,000 active; activity change, % (test concentration not listed); AlphaScreen GST-Six1/His-Eya2 binding, biochemical; hits give low values; control for the full effect not named in the record; AID 651725; in the data active = activity change below about -65%; inconclusive = about -30% to -65%; inactive = above about -30%; note: % is set by controls: 0 for no effect and ±100 for the full control effect; compound concentration not given in the record
# Target sequence (O00167 whole entry, looked up): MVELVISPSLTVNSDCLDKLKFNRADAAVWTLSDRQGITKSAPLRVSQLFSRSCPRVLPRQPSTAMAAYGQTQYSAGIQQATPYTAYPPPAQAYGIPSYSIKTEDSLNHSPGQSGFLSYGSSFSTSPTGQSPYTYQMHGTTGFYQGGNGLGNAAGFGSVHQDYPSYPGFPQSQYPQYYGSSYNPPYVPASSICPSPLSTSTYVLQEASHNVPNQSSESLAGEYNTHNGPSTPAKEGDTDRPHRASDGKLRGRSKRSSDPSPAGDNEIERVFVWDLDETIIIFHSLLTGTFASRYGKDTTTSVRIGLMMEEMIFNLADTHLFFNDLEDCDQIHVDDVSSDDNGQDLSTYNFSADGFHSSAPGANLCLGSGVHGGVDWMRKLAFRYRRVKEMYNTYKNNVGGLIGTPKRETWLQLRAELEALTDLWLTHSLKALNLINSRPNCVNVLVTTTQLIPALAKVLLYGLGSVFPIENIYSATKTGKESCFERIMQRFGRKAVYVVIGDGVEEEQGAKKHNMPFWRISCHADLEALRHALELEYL
# Target sequence (Q15475 whole entry, looked up): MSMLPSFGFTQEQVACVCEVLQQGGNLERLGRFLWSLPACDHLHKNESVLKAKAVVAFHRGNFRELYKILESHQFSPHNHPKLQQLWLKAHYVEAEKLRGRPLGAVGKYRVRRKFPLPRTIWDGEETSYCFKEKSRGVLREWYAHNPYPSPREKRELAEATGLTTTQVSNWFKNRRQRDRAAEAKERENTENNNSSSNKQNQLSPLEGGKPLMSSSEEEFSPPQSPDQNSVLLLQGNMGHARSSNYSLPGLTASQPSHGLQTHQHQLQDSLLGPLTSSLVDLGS
#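 Six1/Eya2 binding was read as AlphaScreen signal after compounds were pinned into GST-Six1 plus His-tagged Eya2 (5X stock 250/500 nM) in pH 8.0 Tris/NaCl/TCEP buffer, beads added, then incubated 1 h, 37 C, dark.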
# TRPML1 agonist – agonists of human TRPML1 channel | Q9GZU1 | TRPML1-expressing cells, Ca2+ dye fluorescence, FDSS; host cell line not named in the record; reference of the full effect not given here | activation, % (concentration not given with the values) | 0.12% of 410,000 active | AID 624414; in the data active = activation above about 50%; inconclusive = about 30% to 50%; inactive = below about 30%; note: 0% is about no effect; the text of the record puts the active cut at 80%
#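 Cells: TRPML1-DL, 1X Tet inducer, ~16 h at 37 degrees C/5% CO2. Dye: ABD Ca8 no-wash + quencher, 45-90 min RT. Read: 10 s baseline, compound add, 110 s agonist phase; 54-4 EC80 (4uM final), 110 s antagonist phase.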
# PINK1 modulator – PINK1 expression modulation. PINK1 immunofluorescence, high-content cytometry, 24 h. Potency, µM (top dose mostly 76.6 µM), for the others: at the top dose activation (PINK1 increase), actives largely listed as activators. 0.2% of 410,000 active. AID 624263; active = well fitted activation curve with a large enough effect; inconclusive = small, poorly fitted or top-dose-only effect; inactive = flat fitted curve, though single readings scatter; cell line not stated here;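 note: potency is the fitted concentration of half-maximal effect; % of control where 0% means no effect; nearly all actives have a fitted effect of over 65% in size; a mitochondrial uncoupler was the plate control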
#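 PINK1 protein level read as immunofluorescence by microplate cytometer in a fixed, stained stable cell line after 24 h exposure to five compound concentrations, with CCCP as control.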
# * marks the source's active call; other numbers are inactive results; ? = inconclusive; nt = not tested or not shown; [ ] = dose if it differs, or a comment.
cpd	SMILES	D2 agonist	CtBP-E1A blk	D2 PAM
1	O=C(/C=C/c1ccccc1Cl)NC(=S)Nc1ccccc1C(=O)NC1CCCCC1	8.1	3	2
2	CC(=O)N(CC(C)C(=O)O)c1c(I)cc(I)c(N)c1I (stereo not drawn)	-2.9	-1	-8
3	COc1ccc(S(=O)(=O)N2CCCC(C(=O)NCc3ccccc3)C2)cc1 (stereo not drawn)	-2.1	-4	-7
4	COc1ccccc1Cn1nnc2c(=O)[nH]c(C3CCN(C(=O)c4ccccc4Cl)CC3)nc21	-3.2	0	-23
5	CCc1nnc(NC(=O)CSc2ccc(-c3nc4ccc(C)cc4[nH]3)cn2)s1	0.0	-10	21
6	O=C(NCCc1cccs1)c1ccc(Cl)c(Cl)c1	0.7	19	-10
7	CCCn1c(N)c(N(CCOC)C(=O)c2cccc(Cl)c2)c(=O)[nH]c1=O	2.6	-3	0
8	Cc1cccc(-c2cc(C(=O)Nc3ccncc3)c3ccccc3n2)c1	?	1	19
9	Cc1nc(N2CCN(C(=O)c3ccco3)CC2)[nH]c(=O)c1C	?	4	6
10	Cc1ccc(C(=O)OCC(=O)NCc2ccco2)cc1C	-1.4	nt	4
11	O=C(CN1C(=O)NC2(CCCCC2)C1=O)N(Cc1ccco1)Cc1cccs1	-5.2	4	-1
12	Cc1ccc(C)c(S(=O)(=O)N2CCCOC2CNC(=O)C(=O)NC2CCCCC2)c1 (stereo not drawn)	-1.0	5	16
13	CN1CCN(C(c2cccnc2)c2ccc3cccnc3c2O)CC1 (stereo not drawn)	-1.2	-81*	-15
14	O=C(NC1CCN(Cc2ccccc2)CC1)C1CCN(S(=O)(=O)c2ccccc2)CC1	0.3	1	-9
15	COc1ccc2[nH]c3c(c2c1)CCN1C(=O)C(CC(=O)NCCN2CCOCC2)C[C@H](C(=O)N2CCCCC2)[C@@]31CCc1ccccc1 (stereo partly drawn)	-1.3	2	1

cpd	Six1-Eya2 inh	TRPML1 agonist	PINK1 modulator
1	3	0.6	0.4%[38.3 µM]
2	0	0.1	2.3%
3	4	0.3	0.2%
4	6	-0.7	1.8%
5	-13	-0.3	-1.0%
6	16	2.6	2.0%
7	1	-0.6	1.1%
8	-5	0.7	16%
9	1	0.2	0.5%
10	-6	-0.9	1.5%
11	-3	-0.1	-1.1%
12	-1	-0.4	-1.4%
13	-90*	-0.1	-1.2%
14	12	-0.3	1.0%
15	2	0.5	1.8%

# Next part.
cpd	SMILES	D2 agonist	CtBP-E1A blk	D2 PAM
16	O=c1cc(N2CCN(c3cccc(Cl)c3)CC2)[nH]c(=O)n1C1CCCCC1	-2.4	18	18
17	O=C1NC(NS(=O)(=O)c2ccccc2)(C(F)(F)F)C(=O)N1Cc1ccccc1 (stereo not drawn)	1.4	3	2
18	O=C(CCc1ccccc1Cl)NC1CCCN(c2ccc(C(F)(F)F)cn2)C1 (stereo not drawn)	5.7	-7	-13
19	CCCNC(=O)C1(C)CCN(Cc2ccc(-c3ccccn3)cc2)C1 (stereo not drawn)	-6.5	-12	-16
20	Cc1ccc(C)c(NC(=O)CSc2nc3c(oc4ccccc43)c(=O)n2-c2ccccc2)c1	-1.9	4	-6
21	O=C(c1ccc2c(c1)N(Cc1ccccc1)C(=O)c1ccccc1S2)N1CCCC1	5.3	-3	-7
22	COc1ccc(CNC(=O)C[C@H]2C[C@H](C(=O)N3CCOCC3)[C@@]3(C)c4[nH]c5cc(CCC(=O)N(C)C)ccc5c4CCN3C2=O)cc1OC	-2.0	6	3
23	O=C(O)C1CCCN(C(=O)NCc2ccccc2)C1 (stereo not drawn)	-2.2	6	1
24	Cn1c(=O)[nH]c(=O)c2c1nc(N/N=C/c1ccncc1)n2Cc1ccc(F)cc1	1.9	7	-1
25	CC1(C(=O)NC2CCN(Cc3ccccc3)CC2)CCN1CCc1ccccc1 (stereo not drawn)	-6.0	-5	-21
26	COc1ccc2c(c1)[nH]c1c(N3CCN(Cc4ccc5c(c4)OCO5)CC3)ncnc12	6.3	-29	-28
27	Cc1cc(NC(=O)C2CCCN2C(=O)Nc2c(C)cccc2C)ccc1-n1cnnn1 (stereo not drawn)	-2.3	2	-13
28	CCOC(=O)CSc1nnc(-c2cccs2)n1-c1ccccc1	-3.0	10	7
29	Cn1c(=O)n(Cc2ccccc2)c(=O)c2c1nc1n2CCS1	-2.6	-1	-7
30	CC1CCC2C(=O)N(c3ccccc3OC(=O)c3ccccc3)C(=O)C2C1 (stereo not drawn)	-1.7	2	2

cpd	Six1-Eya2 inh	TRPML1 agonist	PINK1 modulator
16	-1	-0.4	11%
17	2	-0.8	-0.1%
18	8	-1.4	-0.5%
19	6	0.1	1.2%
20	3	1.7	-0.4%
21	-5	2.3	0.5%
22	-1	0.9	0.0%
23	11	0.5	-2.6%
24	2	-0.8	12%
25	-6	0.7	1.4%
26	?	-0.7	9.2%
27	-7	-1.4	-0.8%
28	5	-0.5	0.5%
29	-2	-0.3	2.1%
30	-1	-0.7	0.5%

# The results go on.
cpd	SMILES	D2 agonist	CtBP-E1A blk	D2 PAM
31	CCCCC(CCC(=O)Nc1ccc(C(=O)OCC)cc1)C(=O)O (stereo not drawn)	-3.2	-5	2
32	C[C@@H]1CN([C@H](C)CO)C(=O)CCCn2nncc2CO[C@H]1CN(C)S(=O)(=O)c1ccc(Oc2ccccc2)cc1	-2.7	-5	3
33	Cc1csc(=O)n1CCC(=O)OCC(=O)Nc1cc(Cl)ccc1[N+](=O)[O-]	9.2	?	?
34	N#CC1=C2SC=C(c3ccc(Br)cc3)N2CCCC1=O	-1.5	9	-12
35	CCOCCCNC(=S)Nc1ccc2nc3n(c(=O)c2c1)CCCCC3	1.3	-1	3
36	COc1ccccc1CN(C)CC(=O)Nc1cccc(S(=O)(=O)N2CCCCC2)c1	1.8	-2	-4
37	Cn1c(Sc2ccc(C(=O)O)cc2[N+](=O)[O-])nnc1-c1ccccc1	-2.9	7	2
38	Cc1ccc(C(=O)N2CCN(c3ccccn3)CC2)cc1[N+](=O)[O-]	-1.8	1	-22
39	CCOc1ccc(CN(C)C(=O)c2ccc(=O)[nH]c2)cc1	-3.6	-2	-6
40	CCCCC(=O)Nc1ccc(Br)cc1C(=O)O	-1.1	0	22
41	NNC(=O)COc1cccc2cccnc12	2.4	-2	-5
42	CC(C)C(NC(=O)c1c(F)cccc1F)C(=O)N1CCN(S(=O)(=O)/C=C/c2ccccc2)CC1 (stereo not drawn)	12	1	6
43	C/C=N/N(c1ccccc1)c1ccccc1	-2.0	0	-6
44	O=C(Nc1nnc(C2CCCCC2)s1)C1CC(=O)N(c2ccc(F)cc2)C1 (stereo not drawn)	-3.8	-2	-10
45	Cc1nc2ccc(C(=O)O)cc2nc1C	0.1	2	-7

cpd	Six1-Eya2 inh	TRPML1 agonist	PINK1 modulator
31	0	-0.5	0.0%
32	-7	-0.1	2.9%
33	-9	4.4	-1.2%
34	17	0.9	1.8%
35	1	0.1	-0.7%
36	-12	0.9	-1.6%
37	0	0.4	1.9%
38	-13	-1.3	-0.8%
39	9	-0.4	0.9%
40	25	0.5	-2.1%
41	-1	-1.1	-0.2%
42	-1	3.5	0.0%
43	-1	nt	8.3%
44	-3	-0.2	1.6%
45	2	0.9	2.6%

# Other compounds.
cpd	SMILES	D2 agonist	CtBP-E1A blk	D2 PAM
46	CSCC[C@H](NC(=O)Cc1ccc(Cl)cc1)C(=O)N1CCC2(CC1)NCCc1[nH]cnc12	-3.3	-5	-11
47	CCOCC(=O)NC1CCc2cc(OC)c(OC)c(OC)c2-c2ccc(SC)c(=O)cc21 (stereo not drawn)	5.9	-11	-6
48	Cc1csc(NC(=O)CSc2ncnc3c2cnn3-c2ccccc2Cl)n1	3.5	0	9
49	Cc1ccccc1Nc1nc(CSc2nnnn2-c2ccccc2)cs1	-2.1	-7	8
50	Cc1ccc2nc(SCC(=O)Nc3cccc(S(=O)(=O)N(C)C)c3)[nH]c2c1	-3.0	-10	-26
51	CC(=O)Nc1ccc(OC(=O)c2cc3cc(Br)ccc3oc2=O)cc1	-4.0	-6	-14
52	c1ccc(CNc2nc3ccccc3n2CCN2CCOCC2)nc1	-0.1	28	-19
53	COc1cc(NC(=O)CN(c2cc(C)cc(C)c2)S(=O)(=O)c2c(C)noc2C)cc(OC)c1	-3.4	0	-3
54	COc1ccc(NC(=O)c2ccc(NC(=O)CSc3nccc(=O)[nH]3)cc2)cc1	-4.0	2	-2
55	O=c1cc(CN2CCN(C/C=C/c3ccccc3)CC2)c2cc(O)c(-c3ccccc3)cc2o1	0.1	6	4
56	Cc1cccc(N(C)S(=O)(=O)c2c(C)noc2C)c1	-5.1	nt	-11
57	CCC(=O)Nc1nnc(SCC(=O)Nc2ccc3c(c2)OCCO3)s1	-4.4	4	-18
58	Cc1csc(SCc2nc3sc4c(c3c(=O)[nH]2)CCC4)n1	-1.8	-2	-3
59	CC1CN(C(=O)Nc2ccccc2)c2ccccc2-[n+]2ccsc21 (stereo not drawn)	-3.8	-7	-2
60	O=C(CN1CCOCC1)NCCNS(=O)(=O)c1ccccc1	-5.7	0	-16

cpd	Six1-Eya2 inh	TRPML1 agonist	PINK1 modulator
46	0	-0.8	-0.5%
47	10	0.6	6.9%
48	-2	2.0	4.6%
49	-10	0.1	0.6%
50	-15	2.1	4.0%
51	?	-0.5	4.6%
52	4	-0.5	-2.6%[38.3 µM]
53	-8	0.1	7.8%
54	2	0.8	26%
55	1	0.7	?
56	18	0.7	5.2%
57	8	0.1	-0.2%
58	2	0.4	4.4%
59	6	-0.5	-0.1%
60	-2	0.4	-0.5%

# Filtered by structure: those above with bromine.
cpd	SMILES	D2 agonist	CtBP-E1A blk	D2 PAM
34	N#CC1=C2SC=C(c3ccc(Br)cc3)N2CCCC1=O	-1.5	9	-12
40	CCCCC(=O)Nc1ccc(Br)cc1C(=O)O	-1.1	0	22
51	CC(=O)Nc1ccc(OC(=O)c2cc3cc(Br)ccc3oc2=O)cc1	-4.0	-6	-14

cpd	Six1-Eya2 inh	TRPML1 agonist	PINK1 modulator
34	17	0.9	1.8%
40	25	0.5	-2.1%
51	?	-0.5	4.6%

# Further entries.
cpd	SMILES	D2 agonist	CtBP-E1A blk	D2 PAM
61	COc1ccccc1CNC(=O)COC(=O)c1cc(=O)[nH]c2ccccc12	-0.2	-20	-1
62	O=C(Cc1ncc(C(F)(F)F)cc1Cl)NC1CC1	0.3	-2	-9
63	O=C(CN1CCN(c2ccc(F)cc2)CC1)Nc1cccc(C(F)(F)F)c1	-0.8	-7	-42
64	COc1ccc(N(C)S(=O)(=O)c2cccc(C(=O)Nc3nc(C)c(C(C)=O)s3)c2)cc1	1.2	-10	22

cpd	Six1-Eya2 inh	TRPML1 agonist	PINK1 modulator
61	-3	2.3	1.5%
62	-4	-0.2	-1.7%
63	2	1.7	1.3%
64	-9	1.9	0.1%
